# Screens deposited in PubChem BioAssay by several laboratories.
# RGS16-Gao – RGS16-Galphao interaction regulator (human) | bead-based flow cytometry RGS16-Galphao binding, fluorescence; actives lie on both sides | 0.38% of 220,000 active | O15492+P09471 | binding response (% of control), % at 10 µM;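 active = below 25% or above 175%, edge rows of some plates excepted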;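 also: Galphao activated by GDP with aluminum fluoride before binding; 100% = wells without compound and 0% = beads without RGS; some results beyond the cut were filed as inactive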
# GALR2 agonist – agonists of human galanin receptor 2 (GALR2) | O43603 | GALR2-expressing cells, agonist activation read-out | activation, %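 (tested at 5 µM)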 | 0.48% of 140,000 active;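 active = above mean plus 3 SD of all compounds, about 5% in these data, not always enough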;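 also: 0% = vehicle buffer wells and 100% = reference agonist at full effect; tested in CHO reporter cells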
# HSV augment – increases HSV replication in cells. 0.005% of 220,000 active. HSV replication augmentation in cells, fold increase. maximum fold increase;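 active = peak rise of 1.5-fold or more in the series; tested in PC3 cells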;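 also: first round at 10 µM; read as green reporter fluorescence; hits show the peak of a series up to 25 µM; 1 = signal of infected wells without compound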
# Insulin prom inh – TRM-6 insulin promoter activity inhibition; TRM-6 cells (human fetal islet line), insulin promoter-eGFP reporter, imaging; reporter expression induced with tamoxifen; 0.9% of 130,000 active; inhibition, % at 2 µM; AID 1273;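 active = inhibition above the mean plus 3 SD, with well images judged a real hit on visual review, cut at about 60% in these data, passing the limit was not always enough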
# PKD1 kinase inh – PKD1 (human) kinase inhibition; PKD1 kinase fluorescence polarization assay; inhibition, %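 (about 10 µM by stock and volumes)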; 0.056% of 200,000 active; Q15139;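 active = inhibition of 50% or more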;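 also: controls were vehicle for no effect and a reference inhibitor for full effect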
# Target sequence (Q15139 whole entry, looked up): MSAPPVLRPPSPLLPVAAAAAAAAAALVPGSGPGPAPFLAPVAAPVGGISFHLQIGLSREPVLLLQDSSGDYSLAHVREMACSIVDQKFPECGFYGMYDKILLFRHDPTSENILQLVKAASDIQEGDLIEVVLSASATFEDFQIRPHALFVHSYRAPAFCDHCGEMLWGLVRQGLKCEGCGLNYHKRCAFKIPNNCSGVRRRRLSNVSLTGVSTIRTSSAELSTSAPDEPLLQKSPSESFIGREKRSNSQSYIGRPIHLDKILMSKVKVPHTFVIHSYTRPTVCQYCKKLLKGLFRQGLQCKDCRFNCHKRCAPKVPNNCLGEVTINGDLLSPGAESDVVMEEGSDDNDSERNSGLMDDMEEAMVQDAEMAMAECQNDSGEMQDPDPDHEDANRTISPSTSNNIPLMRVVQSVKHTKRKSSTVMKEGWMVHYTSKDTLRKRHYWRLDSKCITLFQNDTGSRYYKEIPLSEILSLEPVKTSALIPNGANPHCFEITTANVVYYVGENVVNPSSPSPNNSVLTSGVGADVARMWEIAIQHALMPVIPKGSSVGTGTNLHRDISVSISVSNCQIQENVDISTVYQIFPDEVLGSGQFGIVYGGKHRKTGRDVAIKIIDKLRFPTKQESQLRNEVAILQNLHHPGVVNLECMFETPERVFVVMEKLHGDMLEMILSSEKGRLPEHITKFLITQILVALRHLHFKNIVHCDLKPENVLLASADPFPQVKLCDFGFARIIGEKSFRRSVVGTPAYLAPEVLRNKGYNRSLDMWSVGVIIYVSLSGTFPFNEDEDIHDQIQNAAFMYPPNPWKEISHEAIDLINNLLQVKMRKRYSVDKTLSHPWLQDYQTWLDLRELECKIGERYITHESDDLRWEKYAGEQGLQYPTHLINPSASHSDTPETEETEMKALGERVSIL
# Insulin prom inh cell count – recorded beside Insulin prom inh, whose call it bears; normalized cell count, %; measured here: cell count, toxicity; reference of the scale not given here;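 cells exposed to compound for 48 h; stained nuclei by imaging scaled within each plate; lower means fewer cells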
# HSV augment primary fold – also measured in HSV augment; calls as there; fold increase; compound at 10 µM; measured here: primary screen fold increase 10 uM; tested in PC3 cells;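 GFP signal in the first replicate; 1 = infected wells without compound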
# * = called active by the depositor; i = inactive; x = not tested or not shown.
# The opening 2 records (preview)
Structure,RGS16-Gao,GALR2 agonist,HSV augment,HSV augment primary fold,Insulin prom inh,Insulin prom inh cell count,PKD1 kinase inh
C=CCn1c(N)cc(=O)nc1SCC(=O)NC(C)c1ccccc1 (stereo not given),126,-2.0,i,0.95,-131,30,1
CC(Cl)c1cc(-c2ncc(C(F)(F)F)cc2Cl)no1 (stereo not given),105,x,i,0.99,-22,86,-9

# All compounds of this part, from the first entry:
Structure,RGS16-Gao,GALR2 agonist,HSV augment,HSV augment primary fold,Insulin prom inh,Insulin prom inh cell count,PKD1 kinase inh
C=CCn1c(N)cc(=O)nc1SCC(=O)NC(C)c1ccccc1 (stereo not given),126,-2.0,i,0.95,-131,30,1
CC(Cl)c1cc(-c2ncc(C(F)(F)F)cc2Cl)no1 (stereo not given),105,x,i,0.99,-22,86,-9
Cn1cc(Br)c(C(=O)NC(=S)N2CCN(c3ccccn3)CC2)n1,104,-0.9,i,0.91,-8,99,-2
C=CCN(CC=C)c1nc2ccccc2nc1C(C#N)C(=O)OCCOC (stereo not given),101,-2.3,i,0.99,-13,108,5
Cn1ccc2c([N+](=O)[O-])cccc2c1=O,97,x,i,0.88,-21,125,-1
CCCn1c(SCc2nc3ccccc3s2)n[nH]c1=O,67,x,i,0.98,-64,53,-5
COC(C[C@H]1O[C@@H]1[C@@H](O)COCc1ccccc1)OC,100,x,i,0.9,x,x,x
Clc1ccc(CSc2nnc([C@@H]3CCCN3)o2)cc1Cl,103,-2.7,i,0.9,-50,64,-4
COC(=O)C1=C(N)Oc2cc(C)n(CC3CCCO3)c(=O)c2C1c1ccc(Cl)cc1 (stereo not given),99,-1.9,i,0.93,-25,64,3
CCOC(=O)c1c(C)[nH]c(C(=O)COC(=O)COc2ccccc2C=O)c1C,102,-1.7,i,0.98,20,92,-6
COc1cccc(NC(=O)Cn2cnc3sc(C)c(S(=O)(=O)N4CCCCC4)c3c2=O)c1,98,-1.7,i,1.1,-414,63,-5
CC1(C)CC(=O)C=C(NC2CCS(=O)(=O)C2)C1 (stereo not given),x,-1.4,x,x,i,23,-8
COc1ccc(-c2cc(C(F)F)n3ncc(C(=O)Nc4c(C)n(C)n(-c5ccccc5)c4=O)c3n2)cc1,102,x,i,1.2,24,125,-6
CS(=O)(=O)c1ccc2nc(NC(=O)Nc3ccc(Cl)cc3)sc2c1,100,-0.5,x,x,x,x,-3
S=c1[nH]c(-c2ccccc2)cn1/N=C/c1cccs1,97,x,i,0.96,x,x,x

# Other results
Structure,RGS16-Gao,GALR2 agonist,HSV augment,HSV augment primary fold,Insulin prom inh,Insulin prom inh cell count,PKD1 kinase inh
CCn1c(CNc2ccc(Cl)cc2)nnc1SCc1ccc(Cl)cc1,34,-0.5,i,0.9,-444,61,-15
c1ccc2cc(CNCc3cccc4ccccc34)ccc2c1,99,x,i,1,x,x,x
CC1CCN(C(=S)NC2CCCCC2)CC1,102,-0.6,i,1,x,x,2
C/C(=N\NC(=O)c1ccco1)c1cc2ccccc2o1,102,0.5,i,0.84,-17,99,4
N#C/C(=C\c1cccnc1)C(=O)Nc1cccc(Cl)c1,91,x,i,0.97,x,x,3
COc1cccc2cc(C(=O)N3CCC(C)CC3)c(=O)oc12,100,-1.6,i,0.82,x,x,-2
COC(=O)c1ccccc1N(C)C(=O)C12CCC(C)(C(=O)O1)C2(C)C (stereo not given),103,-0.9,i,1.1,-40,48,2
COC(=O)c1ccsc1NC(=O)CN1CCN(c2ccc(F)cc2)CC1,100,0.1,i,0.81,49,129,2
CCCc1cc(=O)oc2cc(OCC(=O)NCc3cccs3)ccc12,106,-0.9,i,0.89,-27,124,-11
O=C(Nc1c(C(=O)N2CCOCC2)cnn1-c1ccccc1Cl)c1ccco1,103,-0.5,i,1,-400,55,2
CCCOc1ccc(CSc2nnc(CCC)n2N)cc1,103,-2.2,i,0.88,-5,67,9
CCOC(=O)C(=N/O)/C(C)=N/NC(=O)C(=O)Nc1cc(Cl)ccc1Cl,94,x,i,0.86,x,x,x
COC(=O)c1ccc(-c2noc(CN(Cc3nccn3C)C(C)C)n2)cc1,100,x,i,0.92,-57,164,4
CC1=[N+](C)c2c(ccc3cccnc23)C1(C)C,83,x,x,x,x,x,1
Cc1ccc(Nc2nc(Oc3ccc(OCc4ccccc4)nn3)nc(N3CCOCC3)n2)cc1,98,-4.0,i,0.89,-105,85,-12

# Remaining list, next part:
Structure,RGS16-Gao,GALR2 agonist,HSV augment,HSV augment primary fold,Insulin prom inh,Insulin prom inh cell count,PKD1 kinase inh
Cc1ccc(CC(=O)Nc2ccc(F)c([N+](=O)[O-])c2)cc1,104,-0.4,i,0.9,4,89,-15
CCC(C)(C)n1nnnc1C(c1ccccc1)N1CCc2ccccc2C1 (stereo not given),102,-2.1,i,0.99,43,132,2
Cc1ccc(Nc2nc(N)c([N+](=O)[O-])c(NCCO)n2)cc1,102,x,i,0.97,x,x,x
C=CCn1c(CSc2nc3ccccc3s2)nnc1SCC(=O)OCC,97,-2.1,i,1,x,x,-12
O=C(COc1ccc(Br)cc1)Nc1nnc(-c2cccnc2)s1,108,x,i,0.98,x,x,x
CCOC(=O)CNC(=O)CSc1nnc(C)c(=O)[nH]1,102,-0.1,i,0.94,-27,101,-6
NNC(=O)c1cc2cc(OC(F)(F)F)ccc2[nH]1,104,x,i,1,x,x,x
Cc1ccccc1NC(=O)NC1CCCCC1C (stereo not given),99,x,i,0.91,x,x,-1
Cc1cc(C)nc(NS(=O)(=O)c2ccc(NC(=S)NC(=O)C3CCCC3)cc2)n1,101,-0.1,i,1,-8,118,-1
Cc1ccccc1-c1nnc2c3ccccc3c(C)nn12,97,-0.9,i,0.9,-56,133,-2
Cn1cnc([N+](=O)[O-])c1Sc1nnc(-c2cccnc2)n1C,99,x,i,0.99,x,x,x
COc1ccc(/C=N/Nc2ncc(-c3ccccc3)cn2)c(OC)c1,109,-2.3,i,0.95,73,66,-10
O=C(Cc1ccccc1)Nc1ccc(N2CCOCC2)cc1N1CCOCC1,104,-0.3,i,0.87,6,190,-5
CCc1ccc(N(C(=O)c2snc(C(N)=O)c2N)C(C(=O)NCC2CCCO2)c2cccs2)cc1 (stereo not given),108,x,i,0.93,-42,141,-11
C=CCNS(=O)(=O)c1nc(C)c(Cl)c(C)c1C#N,99,-1.4,i,0.73,x,x,4

# (continued)
Structure,RGS16-Gao,GALR2 agonist,HSV augment,HSV augment primary fold,Insulin prom inh,Insulin prom inh cell count,PKD1 kinase inh
O=[N+]([O-])c1ccc(/C=N/Nc2nc(N3CCCC3)nc(N3CCCC3)n2)o1,100,-0.3,i,1.1,x,x,-5
Cc1cc(C)n2c3c(c(C#N)c2n1)CCCC3,104,-3.7,i,1,10,122,-6
O=C(c1ccccc1)c1cc([N+](=O)[O-])ccc1N1CCOCC1,100,0.9,i,0.74,x,x,-7
C=CCn1c(=O)c2ccccc2n2c(SCC(=O)Nc3cc(C)on3)nnc12,100,0.5,i,0.82,-14,67,-6
CC(=O)c1nn(-c2cccc(Br)c2)cc1C(=O)c1ccc2ccccc2c1,107,-2.4,i,0.86,25,90,2
COc1cccc(-c2nc(-c3ccc(NC(=O)c4cccnc4)cc3)no2)c1,106,-3.2,i,0.98,23,94,3
COc1cccc(-n2nnnc2SCC(=O)NCc2ccc3c(c2)OCO3)c1,108,-0.1,x,x,x,x,4
CSc1ccc(/C=N/Nc2nc(C)cc(C)n2)cc1,104,x,i,0.99,x,x,1
COc1ccc(CNC(=O)c2ccccc2NS(C)(=O)=O)cc1,100,x,i,1.1,x,x,1
O=C(Nc1ccccc1Br)c1ccccc1-c1ccccc1,104,-0.3,i,0.69,24,109,3
N#Cc1c(C(F)(F)F)cc(-c2ccccc2)[nH]c1=O,47,-1.2,i,0.94,31,64,4
COc1ccc(OC)c(-n2c(SCC(C)=O)nnc2-c2cccc(S(=O)(=O)N(C)C)c2)c1,94,-1.9,i,1.1,x,x,0
CCNc1nnc(CSc2nc3ccccc3s2)s1,95,-0.6,i,0.83,44,69,-7
COCCNC(=O)C1CC(c2cccc([N+](=O)[O-])c2)=NO1 (stereo not given),103,-1.6,i,0.73,x,x,-5
O=C(c1ccc(S(=O)(=O)N2CCCC2)cc1)N1CCN(Cc2ccc3c(c2)OCO3)CC1,89,-1.6,i,0.94,-279,119,-2

# (more compounds)
Structure,RGS16-Gao,GALR2 agonist,HSV augment,HSV augment primary fold,Insulin prom inh,Insulin prom inh cell count,PKD1 kinase inh
COc1ccccc1NC(=S)N1CCn2cccc2C1c1cccnc1 (stereo not given),101,x,i,0.99,0,111,-2
O=C(CCCn1c(=S)[nH]c2cc3c(cc2c1=O)OCO3)N1CCN(c2ccc(Cl)cc2)CC1,79,-2.2,i,0.85,-100,65,-14
COCCNC(=O)CSCc1cc(C)cc(C)c1,97,x,i,1,x,x,6
CCNC(=O)C(=O)Nc1ccc(OC)c(Cl)c1,109,x,i,0.87,-13,66,8
Cc1cccc(C(=O)NNC(=O)c2ccccc2-n2cccc2)c1,70,x,i,0.96,7,115,-1
Cn1c(SCC(=O)Nc2ccc(F)cc2)nc2c([nH]c3ccccc32)c1=O,103,x,i,0.91,-16,118,-8
COC(=O)c1cc(-c2ccccc2)sc1NC(=O)CN1C(=O)c2ccccc2C1=O,99,-0.4,i,1,10,121,1
Cc1ccc(Oc2ncc(-c3ccc(Cl)cc3)cn2)cc1,105,-1.5,i,0.92,3,114,5
Cn1c(=O)[nH]c(Nc2ccc(F)cc2)c([N+](=O)[O-])c1=O,98,0.3,i,0.95,3,79,-9
COc1cccc(OC)c1OCCCOc1ccc([N+](=O)[O-])cc1Cl,54,-2.2,i,1,-6,84,-8
COc1ccccc1OCCCn1c(=O)oc2ccc(C)cc21,97,-1.7,i,1,-15,102,-9
O=C(CCNC(=O)c1ccccc1)OCC(=O)c1ccccc1,98,x,i,0.99,x,x,-1
COc1cc(NC(=O)CSc2nnc3c(C)cc4cc(C)cc(C)c4n23)c(C(=O)O)cc1OC,107,x,i,0.96,0,124,2
COC(=O)c1cc(CSC(=N)N)ccc1OCCC(C)C,100,x,i,0.83,x,x,x
COc1cc(NC(=O)CN(C)Cc2ccc(OC(F)F)cc2)c(C)cc1[N+](=O)[O-],96,-1.5,i,1,x,x,-6

# The results go on.
Structure,RGS16-Gao,GALR2 agonist,HSV augment,HSV augment primary fold,Insulin prom inh,Insulin prom inh cell count,PKD1 kinase inh
O=C(C(=O)N1CCc2ccccc2C1)c1cn(CC(=O)N2CCCCC2)c2ccccc12,106,-1.2,i,0.89,6,102,-4
CC(=O)N1CCN(S(=O)(=O)c2ccc(S(=O)(=O)NCC(C)C)cc2)CC1,100,-0.1,i,0.85,16,30,0
Cc1ccc(-c2nc(C#N)c(NCC3CCCO3)o2)cc1 (stereo not given),104,x,i,0.85,x,x,-3
COc1ccc(N(C)C(=O)Nc2ccc3c(c2)nnn3C)cc1,118,0.5,i,0.92,55,10,-2
Cc1nc(=O)c(-c2ccccc2)c(C)n1-c1cccc(C(=O)O)c1,102,-1.4,i,0.9,x,x,12
C[N+]1(C)CC2=Cc3ccccc3CC2C1 (stereo not given),96,x,i,1,x,x,-7
CN1CCN(c2ccc(S(=O)(=O)Nc3ccccc3)cc2[N+](=O)[O-])CC1,220,0.2,i,1.2,x,x,-6
CCC(CC)c1nnc(NC(=O)c2ccc3ccccc3n2)s1,99,-1.9,i,0.9,9,107,-5
CCN(CC)C(=O)C(C)N(C#N)c1nc(SC)nc(N(C)C)n1 (stereo not given),103,-1.7,i,0.97,62,89,6
O=C(NC1C2CC3CC(C2)CC1C3)c1ccc(N2CCNCC2)c([N+](=O)[O-])c1 (stereo not given),101,x,i,0.8,x,x,x
Cc1ccc(C(=O)CNc2ccc(C)c(Cl)c2)cc1,106,-0.9,i,0.99,0,105,-1
Cc1ccc(C(=O)Nc2ccccc2C(=O)O)cc1S(=O)(=O)NCc1ccccc1,107,x,i,0.98,-19,50,-6
O=C1N=C(N2CCN(Cc3ccccc3)CC2)S/C1=C/c1cccs1,102,x,i,0.86,x,x,x
Cc1cc(-c2nc(C)c(-c3nnc(SCC(=O)Nc4ccccc4)n3C)s2)no1,100,x,i,0.96,x,x,x
Cc1cc(N)n(-c2ccc(S(=O)(=O)c3ccc(C(C)C)cc3)cc2)n1,109,x,i,0.91,-33,104,-1

# New compounds follow.
Structure,RGS16-Gao,GALR2 agonist,HSV augment,HSV augment primary fold,Insulin prom inh,Insulin prom inh cell count,PKD1 kinase inh
COC(=O)CCCCCCCC(=O)Nc1nnc(C(F)(F)F)s1,100,x,i,0.97,x,x,x
COc1ccc(/C(C)=N/OCC(=O)Nc2nc3ccccc3s2)cc1OC,105,0.4,i,1,-43,160,-6
CSc1nc2ccc(NC(=O)c3ccc(F)c(F)c3)cc2s1,104,x,i,0.92,-30,127,-3
CCOc1ccc(N2C(=O)NC(Cc3c[nH]c4ccccc34)C2=O)cc1 (stereo not given),106,0.2,i,0.96,-4,154,-8

# This is a random part of the collection. About 1.3% of those tested had a hit in this group.
